Bioassay records (PubChem)
PINK1 modulator = PINK1 expression modulation | PINK1 immunofluorescence, high-content cytometry, 24 h | Potency, µM (series often up to 76.6 µM), inactives show at the top dose activation (PINK1 increase), usual class: activators | actives 0.2% (n = 410,000) | AID 624263; active = well fitted activation curve with a large enough effect; inconclusive = small, poorly fitted or top-dose-only effect; inactive = flat fitted curve, though single readings scatter; cell line not stated here;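 also: potency is read from the fitted curve at half-maximal effect; % of control where 0% means no effect; nearly all actives have a fitted effect of over 65% in size; a mitochondrial uncoupler was the plate control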
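Compound titrations (5 concentrations, 24 h) on a stable cell line; DMSO and CCCP controls. Endpoint: fixed-cell PINK1 immunofluorescence with mitochondrial, cell and nuclear markers, scanned by microplate cytometer.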
CtBP-E1A blk = blocks the CtBP interaction with E1A; AlphaScreen GST-E1A/His-CtBP binding, 1536-well; hits give low values; control for the full effect not named in the record; activity change, % (no concentration beside the values); actives 0.49% (n = 340,000); AID 651724; in the data active means activity change below about -65%; inconclusive means about -30% to -65%; inactive means above about -30%; also: % is scaled to controls: 0 for no effect and ±100 for the full control effect; compound concentration not given in the record
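Protein mix (5X: 125 nM each GST-E1A, His-CtBP) was incubated with pinned compound 2 h at 37 deg C in dark, in 50 mM Tris pH 8.0 buffer with 300 mM NaCl. Glutathione donor and nickel acceptor beads followed; AlphaScreen signal read after 1 h.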
Six1-Eya2 blk = inhibitors of human Six1/Eya2 interaction | Q15475+O00167 | AlphaScreen GST-Six1/His-Eya2 binding, biochemical; hits give low values; control for the full effect not named in the record | activity change, % (concentration not given with the values) | actives 0.56% (n = 360,000); in the data active = activity change below about -65%; inconclusive = about -30% to -65%; inactive = above about -30%; also: % is scaled to controls: 0 for no effect and ±100 for the full control effect
Target sequence (O00167 whole entry, looked up): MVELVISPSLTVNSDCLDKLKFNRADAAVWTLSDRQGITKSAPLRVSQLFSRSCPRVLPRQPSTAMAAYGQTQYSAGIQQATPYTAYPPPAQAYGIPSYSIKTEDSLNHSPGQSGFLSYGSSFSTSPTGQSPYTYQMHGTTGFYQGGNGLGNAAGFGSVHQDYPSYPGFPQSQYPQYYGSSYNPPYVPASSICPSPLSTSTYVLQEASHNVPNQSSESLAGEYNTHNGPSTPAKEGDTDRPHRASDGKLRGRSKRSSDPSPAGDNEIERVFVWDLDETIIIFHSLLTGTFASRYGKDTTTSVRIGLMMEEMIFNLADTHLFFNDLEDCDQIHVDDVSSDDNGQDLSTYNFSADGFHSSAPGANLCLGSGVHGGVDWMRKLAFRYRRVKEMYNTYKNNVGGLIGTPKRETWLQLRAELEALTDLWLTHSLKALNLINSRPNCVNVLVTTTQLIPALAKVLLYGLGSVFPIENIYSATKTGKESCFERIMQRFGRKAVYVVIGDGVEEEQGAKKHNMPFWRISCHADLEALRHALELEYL
Target sequence (Q15475 whole entry, looked up): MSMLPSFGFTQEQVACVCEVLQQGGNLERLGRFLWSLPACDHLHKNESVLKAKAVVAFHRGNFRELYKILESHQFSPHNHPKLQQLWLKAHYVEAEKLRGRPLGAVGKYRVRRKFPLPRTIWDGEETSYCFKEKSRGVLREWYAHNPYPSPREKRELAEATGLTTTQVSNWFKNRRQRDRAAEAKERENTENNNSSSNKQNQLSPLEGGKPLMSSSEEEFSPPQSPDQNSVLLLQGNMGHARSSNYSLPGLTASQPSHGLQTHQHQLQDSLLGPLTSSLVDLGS
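Compounds are tested against tagged Six1 and Eya2 proteins bridged by glutathione donor and nickel acceptor beads; after a one-hour incubation at 37 °C without light, AlphaScreen emission is recorded.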
TRPML1 ag = activates the human TRPML1 channel | Q9GZU1 | TRPML1-expressing cells, Ca2+ dye fluorescence, FDSS; host cell line not named in the record; reference of the full effect not given here | activation, % (concentration not given with the values) | actives 0.12% (n = 410,000); in the data active = activation above about 50%; inconclusive = about 30% to 50%; inactive = below about 30%; also: 0% is about no effect; the text of the record puts the active cut at 80%
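Calcium fluorescence on an FDSS kinetic reader gave the read-out. Tet-induced TRPML1-DL cells were plated overnight, dye-loaded (Ca8 with quencher, 45-90 min, room temperature, dark), then read 110 s after compound addition, and again 110 s after 4uM final 54-4 (EC80).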
D2 agonist = agonists of human D2 dopamine receptor (beta-arrestin). P14416. DiscoveRx PathHunter D2 beta-arrestin, luminescence, 90 min; 100% = 57 uM dopamine signal. activation, % (no concentration beside the values). actives 0.084% (n = 360,000). AID 624465; in the data active = activation above about 40%; inconclusive = about 15% to 40%; inactive = below about 15%; also: compound concentration not given in the record; the text of the record calls up to 30% inactive
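DiscoveRx PathHunter D2 beta-arrestin cells (2,100/well) attached overnight, then compound-stimulated 90 min at 37 C in HBSS/10 mM HEPES/0.1% Tween-20 buffer; beta-galactosidase complementation read by luminescence after 1 h at ambient temperature. Dopamine 57 uM final (EC100) as control.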
D2 PAM = human D2 receptor positive allosteric modulation; P14416; DiscoveRx D2 beta-arrestin cells, luminescence, 90 min; 100% = 57 uM dopamine signal; potentiation, % (concentration not given with the values); actives 0.23% (n = 360,000); AID 624464; active = potentiation of 50% or more; inconclusive = 30% to 50%; inactive = 30% or less;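 also: compound concentration not given in the record; tested on top of an EC20 dose of dopamine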
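PathHunter beta-arrestin assay in DiscoveRx D2 cells. Compounds were added with an EC20 of dopamine (50 nM final) for 90 min at 37 deg C. Luminescence was read 1 h after detection reagent, with 57 uM dopamine as the EC100 control.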
* = called active by the depositor; u = inconclusive; x = not tested or not shown; [ ] = another dose, or the depositor's remark.

SMILES	PINK1 modulator	CtBP-E1A blk	Six1-Eya2 blk	TRPML1 ag	D2 agonist	D2 PAM
COc1ccc(N2CCN(C(c3cc4ccc(C)cc4[nH]c3=O)c3nnnn3C3CCCC3)CC2)cc1 (stereo unspecified)	0.3%[38.3 µM]	-11	-6	-0.7	-1.2	-10
Cc1cccc(C(=O)c2cn[nH]c2-c2ccccc2O)c1	3.5%	1	0	-0.3	-4.3	-10
Cn1c(=O)c2c(nc(SCC(=O)NCc3ccc4c(c3)OCO4)n2Cc2ccc(F)cc2)n(C)c1=O	0.1%	-5	-1	-0.6	-4.8	-15
O=C(COC(=O)c1cc(=O)[nH]c2ccccc12)Nc1ccc(F)cc1F	-1.0%	0	20	-0.1	2.6	-25
CCN(CC(=O)Nc1c(F)cccc1F)C(=O)/C=C/c1ccc(OCC#N)c(OC)c1	-6.7%	-3	7	0.6	1.8	-32
CC(C)CCn1c(=O)c2ccccc2n2c(=S)[nH]nc12	-0.8%	-8	-24	-0.4	-4.4	-15
Cc1nnnn1CC(=O)Nc1cccc([N+](=O)[O-])c1	1.0%	0	-4	0.4	-4.6	-3
Cc1nn(C)c(C)c1NC(=O)CSc1nc(Cc2ccccc2)nc2c1cnn2-c1ccccc1	3.9%[38.3 µM]	65	20	-0.2	-1.7	-11
COCCSc1nnc(NC(=O)C2CCCCC2)s1	-0.8%	3	10	0.9	2.0	-5
O=C(O)C(c1ccccc1)N1C(=O)c2ccccc2C1=O (stereo unspecified)	1.1%	x	15	x	2.3	-15
COc1ccc(C(=O)N2CCN(S(=O)(=O)c3ccc(C)cc3C)CC2)cc1OC	-0.7%	4	15	-0.6	0.0	-4
CCOc1ccc(CN2CCCC(CO)(Cc3ccccc3F)C2)cc1 (stereo unspecified)	4.1%	-7	5	2.2	-5.1	-4
CCOC(=O)c1c(C)n(C)c2ccc(OCC(O)CNCCc3ccccc3)cc12 (stereo unspecified)	-1.4%	x	-21	0.5	1.5	-25
CCOc1ccccc1C(=O)OCC(=O)Nc1cc(S(=O)(=O)N2CCOCC2)ccc1C	0.5%	8	0	2.3	6.8	-1
CC(=O)Nc1cc(-c2cccc(F)c2)cn2c(-c3ccc(F)cc3)cnc12	0.4%	-4	-3	0.9	-4.4	1
O=C(OCc1cn([C@@H]2CN(CC3CCCCC3)[C@@H](c3ccccc3)C[C@H]2O)nn1)c1ccccc1	1.1%	-4	1	x	-1.4	x
Cc1coc(C)c1C(=O)CC1(O)C(=O)N(CCc2ccccc2)c2ccccc21 (stereo unspecified)	-7.2%[38.3 µM]	-6	-2	-0.2	-1.3	6
CCN(CC)C(=O)c1sc(N)c(C(=O)OC(C)C)c1C	-2.3%	-11	-6	0.4	-1.4	8
Cc1ccc(NC(=S)NC(C)(C)C)c([N+](=O)[O-])c1	5.2%	-4	-2	0.8	2.6	-7
CC(C)N(Cc1nc(-c2ccc(Cl)cc2)no1)C(=O)CCCN1C(=O)c2ccccc2C1=O	-0.3%	-6	1	0.0	3.0	-4
Cc1cccc(NC(=O)CSCC(=O)Nc2ccc(S(=O)(=O)N3CCCC3)cc2)c1	2.8%	-8	4	2.2	-2.2	-2
C[C@@H]1CN([C@H](C)CO)C(=O)c2cc(NC(=O)c3ccncc3)ccc2O[C@@H]1CN(C)C(=O)Nc1ccccc1	0.1%	-12	0	-0.2	-2.9	-8
CC(=O)Nc1ccc(S(=O)(=O)NCc2nc(-c3ccccc3)no2)cc1	2.8%	16	2	-0.1	6.8	2
Cc1ccc(-c2nn3c(-c4ccccc4)nnc3o2)cc1	0.7%	-11	8	0.9	-2.2	-2
C=CCNC(=O)c1cc(-c2cccnc2)nc2ccccc12	1.2%	0	-2	0.3	-6.2	-1
O=C(Nc1c2c(nc3ccccc13)CCCC2)c1cccc([N+](=O)[O-])c1	10%	0	6	-0.2	-7.0	-6
CCCNC(=O)Nc1ccc2c(c1)nc(C)n2C	2.7%	2	1	-0.2	0.8	6
Cc1[nH]c2ccc(C(=O)N3CCN(C)CC3)cc2c1C	1.2%	x	-2	3.8	-6.6	-17
CCCCN(Cc1ccco1)C(=O)C1CCCN(c2ncnc3c2nc2n3CCCCC2)C1 (stereo unspecified)	1.7%	-14	-16	0.4	0.8	-4
COC(=O)[C@@]12CCCCN1[C@H](c1ccc(-c3cccc(Cl)c3)c(OC)c1)[C@@H]1C(=O)N(C)C(=O)[C@@H]12	0.6%	-11	-16	0.1	-0.2	-3
COc1ccc(N(Cc2ccccc2)C(=O)c2ccccc2[N+](=O)[O-])cc1	0.8%	0	-1	0.7	-1.8	-4
c1ccc(-c2[nH]ncc2-c2nc3ccccc3[nH]2)cc1	x	2	-2	0.1	0.5	-2
COc1ccccc1CNC(=O)[C@@H]1CCCN1S(=O)(=O)c1ccc(C)cc1	0.0%	-22	0	0.9	4.6	-8
Cc1cc(C)nc(/N=C(\N)Nc2ccccc2-c2ccccc2)n1	u	-11	-6	-0.2	-3.1	-24
O=c1c(-c2ccco2)[n+]([O-])c2ccccc2n1OCc1ccccc1[N+](=O)[O-]	-2.7%	0	12	1.8	3.7	-4
CCN1CCN(CCCNC(=O)C2CCCN(c3nc4c(C)cc(C)cc4s3)C2)CC1 (stereo unspecified)	-1.1%	2	-9	-0.1	-1.2	-12

Complete entries, quoted from the list. Order of values: PINK1 modulator	CtBP-E1A blk	Six1-Eya2 blk	TRPML1 ag	D2 agonist	D2 PAM
Profile of `Cc1cccc(C(=O)c2cn[nH]c2-c2ccccc2O)c1` = 3.5%	1	0	-0.3	-4.3	-10
Profile of `CC(=O)Nc1cc(-c2cccc(F)c2)cn2c(-c3ccc(F)cc3)cnc12` = 0.4%	-4	-3	0.9	-4.4	1

Taken from above.
Under D2 agonist, c1ccc(-c2[nH]ncc2-c2nc3ccccc3[nH]2)cc1 has 0.5
Under PINK1 modulator, CCCNC(=O)Nc1ccc2c(c1)nc(C)n2C has 2.7%

Further records follow:
SMILES	PINK1 modulator	CtBP-E1A blk	Six1-Eya2 blk	TRPML1 ag	D2 agonist	D2 PAM
CCc1ccccc1N1CCN(S(=O)(=O)c2ccc(F)c(C)c2)CC1	-0.9%	6	-2	4.3	-3.2	-19
Cc1ccc(NC(=O)NC2CC(=O)N(c3ccc4c(c3)OCCO4)C2)c(C)c1 (stereo unspecified)	0.1%	0	3	-0.3	-2.7	-2
Cn1nccc1NC(=O)c1nccnc1C(=O)O	-0.5%	x	3	1.0	1.7	1
CC(NC(=O)CN1CCN(c2cccc(Cl)c2)CC1)c1ccccc1 (stereo unspecified)	10%	-9	-1	2.3	-4.1	-2
Brc1cccc(-c2nc3c4ccccc4ccn3c2Cc2ccsc2)c1	3.0%	7	15	1.2	-6.3	-10
CCOC(=O)c1c(NC(=O)CSc2nnc(C)s2)sc2c1CCN(C)C2	23%	u	u	-0.7	-4.2	-18
O=C(O)CCCCCNS(=O)(=O)c1ccc2c(c1)OCCO2	2.9%	15	-4	-0.4	-5.2	-3
Cc1ccccc1SCC(=O)OCC(=O)NCCNC(=O)COC(=O)CSc1ccccc1C	0.9%	7	-5	-0.9	-3.0	-6
CC(C)N=C1SC(CC(=O)Nc2ccccc2)C(=O)N1C(C)C (stereo unspecified)	8.4%	-8	5	3.4	0.8	-1
O=C(Cn1c(=O)n(CC(=O)NCc2ccccc2)c2ccccc21)NCc1ccccc1	2.6%	1	0	0.9	-3.1	5
CN(C(=O)CCN1C(=O)/C(=C/c2ccccc2)SC1=S)C1CCS(=O)(=O)C1 (stereo unspecified)	-0.2%	1	-1	0.4	0.3	-11
COc1ccccc1NC(=O)CNS(=O)(=O)c1ccccc1	u	2	5	0.7	6.1	4

2 entries drawn at random from the list so far, as already listed:
SMILES	PINK1 modulator	CtBP-E1A blk	Six1-Eya2 blk	TRPML1 ag	D2 agonist	D2 PAM
CC(NC(=O)CN1CCN(c2cccc(Cl)c2)CC1)c1ccccc1 (stereo unspecified)	10%	-9	-1	2.3	-4.1	-2
O=C(Cn1c(=O)n(CC(=O)NCc2ccccc2)c2ccccc21)NCc1ccccc1	2.6%	1	0	0.9	-3.1	5

(list continues)
SMILES	PINK1 modulator	CtBP-E1A blk	Six1-Eya2 blk	TRPML1 ag	D2 agonist	D2 PAM
COc1cccc(CN(C)C(=O)c2cccc(NC(=O)CC3SC(N4CCCCC4)=NC3=O)c2)c1OC (stereo unspecified)	1.7%	-4	0	0.0	-1.8	1
Cc1cccc(N2CCN(C(=O)COc3cc(=O)n(C)c4ccccc34)CC2)c1C	-2.7%	-2	0	-0.5	0.1	-6
O=C(CC[C@H]1O[C@@H](n2cnc3c(NC(=O)c4ccccc4)ncnc32)[C@H](O)[C@@H]1O)NCc1ccco1	1.1%	2	0	-0.8	3.1	-4
COc1ccc(Nc2nc(C)nc3sc4c(c23)CCC4)cc1O	16%	-9	-3	-0.5	7.0	11
CC(=O)c1c(N2CCOCC2)nc(=S)n(-c2cc(C)ccc2C)c1C	-0.7%[38.3 µM]	21	18	0.8	-0.6	-4
CCOC(=O)CNC(=O)c1ccc(Cl)s1	0.7%	4	6	-1.0	-1.9	-1
C/C(=N\Nc1cc(N2CCCCC2)nc(C)n1)c1ccc(Br)cc1	0.0%	-15	-6	0.4	-3.0	-5
CCOc1ccc(CCN2C(=S)N([C@@H](CC(C)C)CN3CCCC3CN3C(=S)NC[C@@H]3Cc3ccc(O)cc3)C[C@@H]2CC(C)C)cc1 (stereo partly specified)	14%	-8	-11	-0.6	1.7	-5
Cc1cccc(NC(=O)c2c([N+](=O)[O-])c(C(C)(C)C)nn2C)c1	2.7%	5	-8	0.6	0.8	-5
Cc1cccc(C)c1N1C(=O)CN(Cc2ccccc2)C1=S	0.4%	1	0	x	-3.0	1
CCc1c(C)nc2ncnn2c1N1CCC(C(=O)Nc2cccc(C(C)=O)c2)CC1	-4.0%[38.3 µM]	-2	-3	3.2	1.2	-10
O=c1[nH]c(CSc2nc3ccccc3[nH]2)nc2c1cnn2-c1ccccc1	u	0	-14	2.3	-5.7	-13
CCCCOC1NC(=O)NC(=O)C1(F)C(=O)OCC (stereo unspecified)	0.8%	27	23	-0.5	-5.0	-1
C=CCn1c(SCC(=O)N(C)C2CCS(=O)(=O)C2)nnc1-c1ccncc1 (stereo unspecified)	1.0%	-1	11	-0.1	0.8	-13
CCNC(=O)C(C)NC(=O)C1=NN(c2ccccc2)C(=O)CC1 (stereo unspecified)	0.8%	-6	-1	0.6	-4.9	1
Cc1ccccc1NC(=S)NNC(=O)c1cccnc1	1.3%	3	-6	-0.6	9.7	-3
O=C1CCC(=O)N1OCCCOc1ccc(Br)cc1Cl	0.6%	7	0	0.2	-0.8	5
CC1CCN(S(=O)(=O)c2ccc(C(=O)Nc3nnc(C4CC4)o3)cc2)CC1	0.6%	-20	-14	1.7	-1.4	-7
CCc1nc2c(c(=O)[nH]1)C1(CCCC1)Cc1ccccc1-2	3.5%[38.3 µM]	0	7	1.5	-0.6	-5
O=C(CSc1nnc(NC(=O)Cc2ccc(F)cc2)s1)NCc1ccco1	-1.4%	-8	20	-0.2	-2.8	2
C=CCSc1nsc(N)n1	2.9%	-3	-12	0.3	0.7	-17
Cc1cccc(C(=O)NCCN2CCOCC2)c1[N+](=O)[O-]	0.5%	3	2	0.5	0.0	24
Cc1cc(Nc2ccc(Br)c(C)c2)n2nc(C)nc2n1	0.3%	-10	-19	1.4	-2.7	-1
